# From PubChem BioAssay
# Vaccinia pol inh = inhibitors of vaccinia virus processive DNA synthesis (E9 polymerase). in vitro processive DNA synthesis, absorbance read-out; active compounds read low; some inactives read as strong as hits. normalized absorbance, % (concentration not given with the values). 0.94% of 46,000 active;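 active = replicate mean up to 90% and picked by the depositor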;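 also: 100% = median of the test wells of a plate; 100 nL library stock went into each well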
# * hit, by the source's call; & = joins results of further samples.
SMILES,Vaccinia pol inh
O=C(CCCSc1nc2ccc(Cl)cc2s1)c1ccc(F)cc1,100
O=C(NCCN1CCN(C(=O)c2cccc(C(F)(F)F)c2)CC1)c1cccc(C(F)(F)F)c1,114
COc1cccc(OC)c1C(=O)Nc1nnc(CC(C)(C)C)s1,103
Cc1cc2c(cc1S(=O)(=O)N1CCCC1)n(C)c(=O)c(=O)n2C,98
O=C(COc1ccccc1)Nc1nccs1,98
O=S1(=O)CC=C(Sc2ccccc2)C1,111
CC(=O)NCCSc1c(-c2ccc(C)cc2)[nH]c2ccccc12,102
Cc1ccccc1N1C(=O)NC(=O)/C(=C\c2cn(CC(=O)N3CCOCC3)c3ccccc23)C1=O,100
Cc1ccc(S(=O)(=O)n2nccc2-c2c(C)nc3ccccn23)cc1,96
O=C(CC1Oc2ccccc2NC1=O)Nc1cc(Cl)cc(Cl)c1 (stereo not given),102
O=C(c1ccco1)n1nnc2cc(Cl)ccc21,99
O=S(=O)(c1cccc(-c2cn3ccccc3n2)c1)N1CCCCC1,110
CN1/C(=C/C(=O)c2ccccc2)Sc2ccccc21,106
c1ccc(-c2nc(N3CCCC3)nc(-n3ccnc3)n2)cc1,97
C=CCc1cccc2cc(C(=O)Nc3cccc(OC)c3)c(=O)oc12,99
Cc1sc(N2C(=O)C3C4C=CC(C4)C3C2=O)c(C#N)c1C (stereo not given),94
NC(=O)C1CCN(CC(O)COc2ccc(-c3csnn3)cc2)CC1 (stereo not given),88
CC(C)(C)C(CN1CCCC1)OC(=O)c1ccccc1 (stereo not given),108
CCOC(=O)c1ccccc1NC(=O)CSc1nnc(Cc2cccn2C)n1-c1ccc(F)cc1,93
CC(NC(=O)C(c1ccccc1)c1ccccc1)C(=O)N1CCCCC1 (stereo not given),101
CC(C)N1C(=O)CSC1c1ccc(Br)cc1 (stereo not given),91
COC(=O)c1ccc(Nc2cc(C)nc3ccccc23)cc1,99
c1ccc(-c2ccccc2OCc2nnc3n2CCC3)cc1,108
C=CCN(C(=O)CSc1nnc(-c2cc3occc3n2C)n1-c1ccccc1C)c1ccccc1,103
C=CCNC(=O)c1cc2c(=O)c3ccccc3oc2nc1C(F)(F)F,111
CCSc1nnc(NC(=O)c2ccc(C(=O)c3ccccc3)cc2)s1,100
O=C(Nc1ccc(N2C(=O)c3cccnc3C2=O)cc1)c1ccco1,98
COC(=O)CSC1=C(C#N)C(c2ccccc2C)C(C#N)C(=O)N1 (stereo not given),100
O=C1C=CC(=O)N1CCNc1ncc(C(F)(F)F)cc1Cl,90
NNCCc1ccccc1,90
Cc1ccc(NC(=O)C(C)Nc2ccccc2C)cc1 (stereo not given),88
O=C(CSc1cccc[n+]1[O-])N1CCCCC1,104
COc1ccc(OCc2nc3ccccc3[nH]2)cc1,100
CCN(CC)c1cnn(-c2ccc(C(F)(F)F)cc2)c(=O)c1Cl,97
CCOc1cc2[nH]c(=S)n(CCCCC(=O)N3CCCCCC3)c(=O)c2cc1OCC,99
O=S(=O)(CCc1nc2ccccc2[nH]1)CCc1nc2ccccc2[nH]1,103
COc1cccc(-c2cc(C(F)(F)F)n3ncc(C(=O)N(C)CCc4ccccn4)c3n2)c1,98
CC(C)Cc1ccc(S(=O)(=O)NC2CCCCC2C)cc1 (stereo not given),102
CNC(C)C(O)c1ccccc1 (stereo not given),99&92
Cc1nc2c(c(C)nn2C)c(C)c1CCC(=O)NCCCc1ccccc1,104
CC(=O)Nc1c(Br)c(C2CC2)nn1-c1ccccc1,108
O=C(COC(=O)c1cc(Cl)nc(Cl)c1)Nc1cccc2ccccc12,99
C=CCSc1ccc(OCC(F)(F)F)c(C#N)c1OCC(F)(F)F,99
CCCCN(C)C(=O)Cc1ccc(-n2c(=S)[nH]c3ccccc3c2=O)cc1,100
O=C1NC(=O)C(CCc2ccccn2)(CCc2ccccn2)C(=O)N1,99
CSc1cccc(NC(N)=O)c1,101
O=C(OC(C(=O)c1ccccc1)c1ccccc1)c1cccc(O)c1 (stereo not given),101
CCC(C)Cn1c(Cc2ccc(OC)cc2)nc2ccccc21 (stereo not given),105
NCc1nc2ccccc2c(=O)[nH]1,93
O=C1CCC(N2C(=O)c3ccccc3C2=O)C(=O)N1 (stereo not given),100&96

# Going on with the list.
SMILES,Vaccinia pol inh
CCOC(=O)c1cccc2c1-c1ccccc1/C2=N/O,94
CCc1nnc(NC(=O)c2c(OC)cccc2OC)s1,101
Cc1cc(-c2ccccc2)oc2cc3ccccc3c1-2,98
O=C(O)C1CCCN1c1ncnc2ccccc12 (stereo not given),100
O=C(CCCCc1nc2ccccc2s1)Nc1ccccc1,98
N#CC1=C(N2CCCCC2)c2cc3c(n2C1=O)CCCC3,100
COc1ccccc1C(=O)Nc1c2c(nn1-c1ccc(Oc3ccccc3)cc1)CSC2,99
CCc1ccc(/C=C2\SC(=S)N(CCCC(=O)NC3CCCC3)C2=O)cc1,101
C=CCNC(=O)C(C)N1c2cccc3cccc(c23)S1(=O)=O (stereo not given),99
CCN(CC)S(=O)(=O)c1ccc(C(=O)Nc2ccccc2Cl)cc1,85
COc1ccc(/C=C2\Sc3ccccc3NC2=O)cc1,104
O=C(Nc1ccc(C(F)(F)F)cc1)C1CCc2ccccc2O1 (stereo not given),94
C=CCC(Nc1ccccc1C)c1ccc(Cl)cc1 (stereo not given),100
CCN(C(=O)c1cnc(N2CCN(c3ncccn3)CC2)c2ccccc12)c1cccc(Cl)c1,107
COc1ccc(-c2noc(N3CCC(C(=O)N(C)c4ccccc4)CC3)n2)cc1,97
O=C(NCCc1ccccc1)c1ccccc1CN1C(=O)c2ccccc2C1=O,100
COc1ccc(C2C(C#N)=C(SC)NC3=C2C(=O)CC(C)(C)C3)cc1 (stereo not given),112
CCc1nnc(NC(=O)C(CC(C)C)N2C(=O)c3ccccc3C2=O)s1 (stereo not given),100
S=c1sc2ccccc2n1CSc1ccc(Cl)cc1,102
CC1(C)CC(=O)C(C=NCC2CCCO2)=C(O)C1 (stereo not given),99
O=C(Nc1ccc(C(=O)N2CCCCC2)cc1)c1ccc(=O)[nH]c1,104
CCNC(=S)N1CCN=C1Nc1nc(C)cc(C)n1,100
COC(CNC(=O)c1cc2c(=O)n(C)c3ccccc3c2n1C)OC,96
O=S(=O)(c1ccc2[nH]c3c(c2c1)CCCC3)N1CCCCC1,99
CCOc1ccc(NC(=O)CCCn2nc(CC)n3c(cc4occc43)c2=O)cc1,102
CSC1=N/C(=C\C=C\c2cccs2)C(=O)S1,100
COc1cccc(C(=O)OCC(=O)N2CCc3ccccc3C2)c1,104
O=C(COc1cccc2c1CCN(Cc1ccccc1)C2=O)NC1CCCCC1,101
O=C(NCc1ccccn1)c1cc(-c2ccccc2O)no1,103
COC(=O)CC1COc2ccccc2N1C(=O)c1cccc(Cl)c1 (stereo not given),84

# Eight compounds picked at random from those above, as already listed:
SMILES,Vaccinia pol inh
COc1cccc(C(=O)OCC(=O)N2CCc3ccccc3C2)c1,104
CCOc1ccc(NC(=O)CCCn2nc(CC)n3c(cc4occc43)c2=O)cc1,102
CCNC(=S)N1CCN=C1Nc1nc(C)cc(C)n1,100
O=C(COc1cccc2c1CCN(Cc1ccccc1)C2=O)NC1CCCCC1,101
CSC1=N/C(=C\C=C\c2cccs2)C(=O)S1,100
O=C(NCc1ccccn1)c1cc(-c2ccccc2O)no1,103
COC(CNC(=O)c1cc2c(=O)n(C)c3ccccc3c2n1C)OC,96
O=S(=O)(c1ccc2[nH]c3c(c2c1)CCCC3)N1CCCCC1,99

# The listing continues:
SMILES,Vaccinia pol inh
Cc1cc(OCC(O)CNC(C)(C)C)ccc1Cl (stereo not given),100
CC(C)C(NC(=O)c1ccccc1)C(=O)Nc1nc2ccc(Cl)cc2s1 (stereo not given),103
O=C(Cn1c(=O)oc2ccccc21)NCc1ccco1,98
O=C(c1cc2ccccc2o1)N1CCCc2ccccc21,100
CC(C)COC(=O)c1ccc2c(c1)C1C=CCC1C(c1ccc(Cl)cc1)N2 (stereo not given),100
CC12COC3(C(=O)N4CCCCC4)CC1CCC32C (stereo not given),96
Cc1cc(NC(=O)CCn2c(=O)sc3ccccc32)no1,100
C[C@@H]1OC(Oc2c(-c3ccc(O)c(O)c3)oc3cc(O)cc(O)c3c2=O)[C@H](O)[C@H](O)[C@H]1O (stereo not given in full),100
Cc1ccc(N2CS(=O)(=O)CC2=O)cc1,115
CCc1nc(SCC(=O)Nc2cc(C)on2)n[nH]1,94
Cc1ccc2[nH]c(=O)cc(C(=O)OCC(=O)c3ccc(F)cc3)c2c1,100
Cc1cc(=O)n2nc(N3CCCC(C(=O)N4CCN(c5ccccc5)CC4)C3)sc2n1 (stereo not given),99
CCc1nnc2n1N=C(c1ccc3c(c1)OCCO3)CS2,99
Cc1ccc(C(C)C)c(OCC(O)CNC(C)C)c1 (stereo not given),95
CC12C/C(=C\c3ccccc3)C(=O)C[C@@H]1CCC1C2CCC2(C)C1CC[C@]2(C)O (stereo not given in full),101
C=CCN1C(=O)/C(=C\c2cccs2)SC1=Nc1ccccc1,98
CC(=O)N/C(=C/c1ccccc1Br)C(=O)NCc1ccc(C)cc1,103
Cc1ccc(C)c(CSC2=NCCN2C(=O)c2ccc(S(=O)(=O)N3CCOCC3)cc2)c1,98
COC(=O)c1ccc(Nc2nc(-c3ccc(Br)cc3)c(C)s2)cc1,107
CCC1(COC(NC(=O)c2ccc(Cl)cc2Cl)(C(F)(F)F)C(F)(F)F)COC1,100
O=C(CCN1C(=O)COc2ccccc21)NC1CCCCCC1,93
CC1SCC(NC(=O)Nc2ccc(Cl)cc2)CS1 (stereo not given),103
NNC(=O)c1cc(C23CC4CC(CC(C4)C2)C3)[nH]n1,101
O=C(NO)c1cccc2c1-c1ccccc1/C2=N/O,73
COC(=O)C(C)Sc1nc2c(c(=O)n1-c1ccccc1)SCC2 (stereo not given),100
O=C1C=C(N2CCOCC2)C(=O)N1c1ccc(Cl)cc1,99
CCNc1nnc(-c2ccc(C)cc2)s1,102
COc1cccc(C2=Nc3ccccc3C2=O)c1,99
O=C(c1ccc(-c2ccccc2)s1)N1CC=C(c2ccccc2)CC1,123
CCOC(=O)Cc1c(-c2ccccc2)c2cc(Br)ccc2[nH]c1=O,106
Cc1ccc(OCC(O)CN2C(C)CCCC2C)c(C)c1 (stereo not given),100
COc1ccc(NC(=O)c2ccco2)cc1OC,109
N#CCc1nc2n(n1)Cc1ccccc1-2,100
CC12CC[C@@H](O)CC1CCC1C2CCC2(C)C(C(=O)O)CCC12 (stereo not given in full),98
CC1=C(C#N)C(C(F)(F)F)(C(F)(F)F)N=C(Cc2ccccc2)N1,104
COc1ccc(OC)c2c1CC(C)(C)NC2=O,101
OC1(C(F)(F)F)CC(/C=C/c2ccc3c(c2)OCO3)=NN1 (stereo not given),100
CCN1CCN(c2ncnc3c2cnn3-c2ccccc2)CC1,99
CCCNC(=O)CC1Oc2ccccc2NC1=O (stereo not given),98
CC1=CCC2C(=O)N(c3ccc(C4CCCCC4)cc3)C(=O)C2C1 (stereo not given),98
CCC[C@@H]1C[C@@H](C(=O)N[C@H]([C@H]2O[C@H](SC)[C@H](O)[C@@H](O)[C@H]2O)[C@H](C)O)N(C)C1,98
O=C(CCc1ccccc1)N1CCc2ccccc21,92
Cc1cccc(-c2nc3scc(-c4ccccc4)n3n2)c1,91
Cc1ccccc1C(=O)OCC1CCCN2CCCCC12 (stereo not given),101
CCCN1C(=O)C(O)(C2CC(=O)CC(C)(C)O2)c2ccccc21 (stereo not given),100
CCc1nnc(NC(=O)c2cc(S(=O)(=O)N3CCc4ccccc43)cn2C)s1,100
O=C(O)CN1C(=O)C2C3C=CC(C3)C2C1=O (stereo not given),108
O=C(Nc1ccc(Cl)cc1)C1(S(=O)(=O)c2ccc(Cl)cc2)CC1,102
CC(=O)Oc1ccc2cc(-c3nc4ccccc4n3C)c(=O)oc2c1,100
CCCCN(CC)C(=O)Nc1ccc2c(c1)N(CC)C(=O)c1ccccc1S2,111

# Another view of part of the listing above:
O=C(Nc1ccc(Cl)cc1)C1(S(=O)(=O)c2ccc(Cl)cc2)CC1
  Vaccinia pol inh: 102

CCC[C@@H]1C[C@@H](C(=O)N[C@H]([C@H]2O[C@H](SC)[C@H](O)[C@@H](O)[C@H]2O)[C@H](C)O)N(C)C1
  Vaccinia pol inh: 98

O=C(CCc1ccccc1)N1CCc2ccccc21
  Vaccinia pol inh: 92

Cc1ccccc1C(=O)OCC1CCCN2CCCCC12 (stereo not given)
  Vaccinia pol inh: 101

# Next section.
SMILES,Vaccinia pol inh
CC(C)SC1=NN2CCCC(=O)N=C2S1,101
O=C(O)Cn1cc(C=C2C(=O)NC(=O)NC2=O)c2ccccc21,98
N#Cc1ccccc1N/C=C(\C(N)=S)C(F)(F)F,100
O=S(=O)(c1cccc(-c2nnc(-c3ccccc3)o2)c1)N1CCCC1,100
Cc1nnc2ccc(NCCC3=CCCCC3)nn12,100
CC(C)=C(C#N)n1cnc2ccccc21,101
COc1cccn(Cc2n[nH]c(=S)n2C)c1=O,103
Cc1noc(C)c1CSc1n[nH]c(=O)n1Cc1ccco1,86
O=c1[nH]nc(-c2cccc(Br)c2)[nH]1,100
O=C(/C=C/c1ccc(Cl)cc1)Nc1cccc(Cl)c1,98
O=C(O)c1c(-c2ccccc2)[nH]n(-c2ccccc2)c1=O,97
COC(=O)CSC1=C(C#N)C(c2ccccc2Cl)C(C#N)C(=O)N1 (stereo not given),99
Cc1ccc(C)c(NC(=O)c2cccs2)c1,98
Cc1c(C(=O)O)sc2ncn(Cc3ccccc3F)c(=O)c12,100
COC(=O)CNC(c1ccccc1)c1cc(Br)ccc1NC(C)=O (stereo not given),100
CCC(C)Cn1c(C(C)O)nc2ccccc21 (stereo not given),108

# An excerpt. The share of hits here may be higher or lower than overall.
